VACV mCherry inh: inhibitors of vaccinia virus infection (mCherry reporter signal) | Potency, µM (series often up to 36.5 µM), for the others: top-dose activity change, negative = inhibition, most hits filed as inhibitors | AID 720579 | Vaccinia virus mCherry reporter infection, fluorescence; about a quarter of the inactives have no number | actives 0.63% (n = 310,000); active = well fitted inhibition curve with a large enough effect; inconclusive = small, poorly fitted or top-dose-only effect; inactive = no such curve, though single readings can be large or run the other way; tested in A549 cells; note: nearly all actives have a fitted effect of over 35% in size; inactives centre near -10
VACV Venus inh: vaccinia inhibition (Venus reporter). Vaccinia virus Venus reporter expression, fluorescence. Potency, µM (top dose mostly 36.5 µM), for inactives: at the top dose activity change, negative = inhibition, hits mostly inhibitors. actives 0.46% (n = 330,000). AID 720580; active means well fitted inhibition curve with a large enough effect; inconclusive means small, poorly fitted or top-dose-only effect; inactive means no such curve, though single readings can be large or run the other way; tested in A549 cells; note: nearly all actives have a fitted effect of over 30% in size; inactives centre near -10
* hit, by the source's call; i = inactive; ? = inconclusive; . = not tested or not shown; & = joins results of further samples; [ ] = remark or other dose. % is set by controls: 0 for no effect and ±100 for the full control effect; potency is the fitted concentration of half-maximal effect. Random draw from the library; 0.82% or so of the library scored in one or more.

Order of results: VACV mCherry inh | VACV Venus inh
> CN(C(=O)c1ccccc1C(=O)OCC(=O)c1ccc(F)c(F)c1)C1CCCCC1
    -18% | -22%
> O=C(NCCCc1ccccc1)N1CCOCC1
    -5% | -11%
> CCOc1ccc(C2NCCc3cc(OC)c(OC)cc32)cc1OC (centres undefined)
    -8% | -23%
> O=C(Nc1cccc(C(=O)N2CCCC2)c1)C1CCCC1
    i | -6%
> O=C(NCCc1ccccn1)C(F)(F)C(F)(F)C(F)(F)C(F)(F)C(F)(F)C(F)(F)C(F)(F)C(F)F
    -20% | -7%
> Cc1cc(NS(=O)(=O)c2ccc(Br)s2)no1
    -14% | -6%
> COc1ccccc1OCC(=O)Nc1ccccc1C(=O)NC1CC1
    -21% | -18%
> CC(=O)Nc1cccc(C(=O)NC2CCCc3c2cnn3-c2ccccc2F)c1 (centres undefined)
    i | -14%
> CCNC(=S)N/N=C/c1ccccc1[N+](=O)[O-]
    -7% | -7%
> CN(C)C(=O)Oc1ccc(Br)c2ccccc12
    i | -11%
> O=C(O)c1cccc(-c2ccccc2)c1O
    i | 0%
> CCOc1ccc(NC(=O)c2ccc(NC(=S)NC3CCCCC3)cc2)cc1
    -16% | ?
> COc1ccc(N2CCN(C(=O)CS(=O)Cc3nc(-c4ccc(OC)c(OC)c4)oc3C)CC2)cc1 (centres undefined)
    -19% | -25%
> O=C(NCc1ccco1)c1nnc(Cc2ccc(Cl)cc2)o1
    i | -14%
> Cc1cc(N2CCC(C)CC2)nc2ccc(N3C(=O)CCC3=O)cc12
    i | -9%
> CCn1cc(C(=O)OCC(=O)Nc2cccc(Cl)c2Cl)c(=O)c2ccc(C)nc21
    -6% | -8%
> COc1cccc(/C=N/NC(N)=S)c1OCc1cccc(Cl)c1
    ? | ?
> CCCCNC(=O)c1c(N)n(Cc2ccc3c(c2)OCO3)c2nc3ccccc3nc12
    i | -1%
> CCOC(=O)N1CCN(c2c(NCCN(C)Cc3ccccc3)c(=O)c2=O)CC1
    i | -9%
> CC(C)(C)OC(=O)c1c(N)n(Cc2ccco2)c2nc3ccccc3nc12
    ? | -2%
> CC(=O)Nc1ccc(S(=O)(=O)NCC(=O)OCC(=O)NCc2ccc3c(c2)OCO3)cc1
    -12% | -13%
> COC(=O)c1cccc(NC(=O)CC2C(=O)NCCN2C(=O)c2ccc(F)cc2F)c1 (centres undefined)
    i | 9%
> CN(C=O)CP(=O)(O)CN(C)C=O
    . | -1%
> CCOc1ccc(OCCC(=O)N2CCN(S(=O)(=O)c3ccc(F)cc3)CC2)cc1
    -11% | -11%
> COc1ccccc1C(=O)NCC(=O)NCCC(c1ccccc1)c1ccccc1
    -2% | -17%
> COc1ccc(CN2COc3ccc4c(-c5ccc(OC)cc5)cc(=O)oc4c3C2)cc1
    -27% | -17%
> CN(C(=O)c1ccc(=O)n(Cc2ccc(Cl)cc2)c1)c1ccccc1
    -6% | -11%
> Cc1ccc(SCc2nc(-c3ccc(C(=O)NCC(C)c4ccccc4)cc3)oc2C)cc1 (centres undefined)
    -27% | -16%
> CC(C)c1ccc(OCC(=O)N2CCCN(C)CC2)cc1
    i | -4%
> COc1ccc(/C=C/C(=O)Nc2cc(S(=O)(=O)N3CCOCC3)ccc2N2CCCC2)cc1OC
    -4% | -8%

Continuation.
Order of results: VACV mCherry inh | VACV Venus inh
> O=C(Cc1c(F)cccc1Cl)c1ccc(O)cc1O
    -7% | -2%
> CCOC(=O)c1c(-c2ccc(C)o2)csc1NC(=O)CN1CCCCC1
    -12% | -4%
> Cc1nc(C(F)(F)F)ccc1C(=O)N1CCC1(C)C(=O)NS(=O)(=O)c1cccc(Cl)c1 (centres undefined)
    -10% | -2%
> C[C@@H]1C(=O)OC[C@H]1NC(=O)OCc1ccccc1
    i | -1%
> O=C(Nc1c(Cl)cc(Cl)cc1C(=O)NCCN1CCOCC1)c1cccc([N+](=O)[O-])c1
    -9% | 7%
> Cc1ccc(N(C)S(=O)(=O)c2cccc(C(=O)Nc3nnc(C4CC4)s3)c2)cc1
    i | -5%
> CCOC(=O)c1c(S(=O)(=O)N2CCCC(C(=O)NCc3ccc(Cl)cc3)C2)c(C)n(C)c1C (centres undefined)
    -9% | -11%
> Cc1ccc(Cn2c(C)c3cnn(CC(=O)NCc4ccccc4)c(=O)c3c2C)cc1
    -12% | -21%
> COc1cccc(N2CCN(C(=O)c3oc4ccccc4c3NC(=O)Cc3ccc(OC)c(OC)c3)CC2)c1
    -15% | -24%
> COc1ccccc1/C=N/NC(=O)CC(=O)NCc1cccnc1
    -7% | 5%
> Cc1cc(O)ccc1NC(=O)Cc1cccc2ccccc12
    ? | -15%
> CN(C)C(CNc1ncccn1)c1ccccc1 (centres undefined)
    -17% | -3%
> CC12CC3CC(C)(C1)CC(C(=O)N1CCCC1)(C3)C2
    i | -14%
> Cn1c(C(c2cc3ccccc3n2C)c2cc3ccccc3n2C)cc2ccccc21
    ? | ?
> CC(=O)c1ccc(N2CCN(C(=O)C3CCN(S(=O)(=O)c4ccc(Br)s4)CC3)CC2)cc1
    -20% | -12%
> COc1cc(C(=O)N2CCN(c3ccc([N+](=O)[O-])cc3)CC2)ccc1OCc1c(C)noc1C
    . | 6%
> Cc1ccc(C(=O)N2CCN(C)CC2)cc1S(=O)(=O)N1CCCCCC1
    -6% | 0%
> COc1ccc(Cl)cc1C(=O)NNC(=O)c1cccnc1
    -16% | -7%
> Cc1noc(NS(=O)(=O)c2ccc(NC(=O)c3oc4ccc(F)cc4c3C)cc2)c1C
    -11% | 1%
> CC(C)NC(=O)C1CCC(Cn2c(=O)c3sccc3n(Cc3ccc(F)cc3)c2=O)CC1 (centres undefined)
    -20% | -16%
> CN(CC(=O)Nc1c(Cl)cccc1Cl)C(=O)CCC1CCCC1
    i | -9%
> O=C(CSc1nc2c(cnn2-c2ccc(F)cc2)c(=O)[nH]1)Nc1ccc(Br)cc1
    -6% | 4%
> Cc1cc(C(=O)N/N=C/c2ccccc2Br)no1
    i | -7%
> CC(C)c1ccc(C(=O)CSc2n[nH]c(-c3ccncc3)n2)cc1
    . | -4%
> CSc1nc(-c2ccccc2)nc(C(Cl)Cl)n1
    13µM* | 10µM*
> Cc1cccc(OCC(=O)Nc2cc(C)c(C)cc2O)c1
    -14% | -16%
> CCn1nc(CC(=O)O)c2ccccc2c1=O
    -3% | -3%
> Cn1ccnc1SCC(=O)c1ccc(C#N)cc1
    15% | -3%
> Cc1nc(-c2ccc(C)c(N3CCN(C(=O)Nc4ccc(Br)cc4)CC3)c2)no1
    i | ?
> CC(C)(C)n1nc2c(c1NC(=O)COc1ccc(Cl)cc1)CSC2
    -11% | 0%

Entries of single compounds from above. Values in the order: VACV mCherry inh	VACV Venus inh
Listed for Cn1c(C(c2cc3ccccc3n2C)c2cc3ccccc3n2C)cc2ccccc21 = ?	?
Listed for COc1ccccc1/C=N/NC(=O)CC(=O)NCc1cccnc1 = -7%	5%
Listed for CC(C)(C)n1nc2c(c1NC(=O)COc1ccc(Cl)cc1)CSC2 = -11%	0%
Listed for CCOC(=O)c1c(S(=O)(=O)N2CCCC(C(=O)NCc3ccc(Cl)cc3)C2)c(C)n(C)c1C (centres undefined) = -9%	-11%
Listed for CC12CC3CC(C)(C1)CC(C(=O)N1CCCC1)(C3)C2 = i	-14%

Carrying on.
Order of results: VACV mCherry inh | VACV Venus inh
> CSc1sc2ccccc2[n+]1CCCS(=O)(=O)[O-]
    i | -4%
> Cc1cc2occ(CC(=O)NCc3cccs3)c2cc1C(C)C
    ? | -19%
> CC1CC(C)CN(C(=O)C(C)N(C)CC(=O)Nc2ccccc2Cl)C1 (centres undefined)
    -14% | -2%
> COC(=O)c1ccccc1C(=O)N1CC(O)CO1 (centres undefined)
    i | 60%[activator]
> O=C(COc1ccc(Cl)cc1)Nc1nnc(S(=O)(=O)N2CCCCCC2)s1
    -7%&-11% | -19%&-8%
> Cn1c2ccccc2c2c(C(=O)NCCCN3CCCC3=O)cn(C3CCCCC3)c(=O)c21
    -29% | -14%
> CC1(C(=O)NCc2ccccc2)CSCC(=O)N1CCOc1ccccc1 (centres undefined)
    -14% | -6%
> C/C=C\C(=O)Nc1cccc(C2=NOC3(C2)C[C@@H](C(N)=O)N(C(=O)CC(c2ccccc2)c2ccccc2)C3)c1 (some centres undefined)
    ? | ?
> COc1ccc(N(C(C)=O)S(=O)(=O)c2cccc3cccnc23)cc1
    -26% | -17%
> O=C(CCn1nc(-c2ccc(Cl)cc2)ccc1=O)N1CCOCC1
    i | -13%
> Cc1ccc(C(=O)CSc2nc(C)cc(C)c2C(N)=O)cc1
    -13% | -8%
> COc1cccc(CNC(=O)CCC(=O)N2CC(C)Sc3ccccc32)c1 (centres undefined)
    -9% | -14%
> CCCCN(C)S(=O)(=O)c1ccc(C(=O)Nc2sc3c(c2C(=O)OCC)CCN(C(C)C)C3)cc1
    -17% | -14%
> C[C@H](CO)N1C[C@H](C)[C@@H](CN(C)C(=O)Nc2ccc(N3CCN(C)CC3)cc2)OCc2cnnn2CCCC1=O
    -22% | -19%
> Cc1nc2c(sc(=S)n2Cc2ccco2)c(=O)n1CC(=O)Nc1ccccc1F
    -3%[7.34 µM] | 0%[7.34 µM]
> CCCC#Cc1cnc2c(c1)C(=O)N([C@H](C)CO)C[C@H](C)[C@@H](CN(C)C(=O)CCN1CCCCC1)O2
    -3% | -19%
> CN1CCN(S(=O)(=O)c2ccc3[nH]c(=O)oc3c2)CC1
    -9% | -6%
> COc1cc(Nc2ccccc2Cl)c([N+](=O)[O-])nc1[N+](=O)[O-]
    -10% | -9%
> c1ccc(CN2CCC3CC2c2cc(N4CCCCC4)ccc23)cc1 (centres undefined)
    -17% | -12%
> Cn1c(CCCCCN)nc2ccccc21
    -12% | -6%
> COc1ccc(S(=O)(=O)N2CCCCCC2)cc1C(=O)N1CCN(C(C)=O)CC1
    -7% | -16%
> CC(=O)c1cccc(CN2CCC(n3nccc3NC(=O)c3ccc4c(c3)OCO4)CC2)c1
    -11% | -24%
> O=C(CSc1ncc(-c2ccccc2)[nH]1)Nc1cccc(O)c1
    -12% | -6%
> COC(=O)c1ccccc1NC(=O)CCC(=O)N1CCSc2ccccc21
    -5% | -4%
> CCOC(=O)c1cc(NC(=O)Nc2ccc(OC)c(OC)c2)c(C)nc1C
    . | -13%
> CC(C)(C)n1ncc2c(=O)n(CC(=O)c3ccc(Cl)cc3)cnc21
    . | -29%
> O=C(NNS(=O)(=O)c1ccc(Br)cc1)C1CCCCC1
    6% | -5%
> C[C@@H]1CN([C@H](C)CO)C(=O)CCCn2nncc2CO[C@H]1CN(C)Cc1ccc(Oc2ccccc2)cc1
    -11% | -19%
> CC(C)N(C(=O)[C@H]1CC(CC(=O)NCCc2ccccn2)C(=O)N2CCc3c([nH]c4ccccc34)[C@]12C)C(C)C (some centres undefined)
    -14% | -23%
> CCCc1cc(=O)oc2c(CN3CCCC3)c(O)ccc12
    -13% | -6%

Going on with the list:
Order of results: VACV mCherry inh | VACV Venus inh
> CC(=O)c1cccc(NC(=S)NC2CCCCC2)c1
    -13% | -3%
> FC(F)(F)c1nc2nc(Cl)c(Cl)nc2n1CCCN1CCOCC1
    -19% | -12%
> COc1ccccc1C1CC(=O)NC(C)=C1C(=O)OC1CCCCCC1 (centres undefined)
    -20% | -12%
> CCOC(=O)C1=C(CC)Nc2ccccc2N=C1NC(=O)Nc1ccc(Cl)c(Cl)c1
    ? | ?
> O=c1oc2ccccc2c(NC2CCCCC2)c1NS(=O)(=O)c1ccc(Br)cc1
    -7% | -2%
> CC(=O)Nc1nonc1-c1nnc(SCc2cccc(Br)c2)n1C
    -11% | -7%
> CN1OC[C@@H]2CN(C(=S)NCCc3ccccc3)[C@H](c3ccccc3Br)C[C@@H]21
    i | 0%
> S=C(NCc1cccs1)Nc1ccccc1
    -8% | 2%
> CC(C)c1nnc(NC(=O)CC(C)c2ccccc2)s1 (centres undefined)
    i | -10%
> Cc1cc(Cl)ccc1OCC(=O)Nc1ccccc1CO
    -9% | -22%
> CCOc1ccc(S(=O)(=O)NN)cc1
    -9% | -15%
> CC(C)n1ncc2c(C(=O)NCCc3ccc(S(N)(=O)=O)cc3)cc(C3CC3)nc21
    -25% | -27%
> COc1ccc(CN(C)S(=O)(=O)c2ccc3c(c2)OCCO3)cc1
    i | -4%
> O=C(c1cc(C2CC2)nn1-c1ccccc1)N1CCN(S(=O)(=O)c2c(F)cccc2F)CC1
    -15% | -11%
> Cc1ccc(C)c(N2CCN(C(=O)CCCn3ncn4c(cc5occc54)c3=O)CC2)c1
    -14%&-24% | -16%&-11%
> CCN1CCN(C(=O)CSc2cc(=O)n(C)c3ccccc23)CC1
    i | 9%
> Clc1ccc(OCCSc2ncccn2)c(Br)c1
    -13% | -13%
> COc1ccc(NS(=O)(=O)c2ccc(N3CC(O)=C(c4ccccc4)C3=N)cc2)cc1
    -5% | 10%
> CCC(Sc1ncc(S(=O)(=O)c2ccc(C)cc2)c(=O)[nH]1)C(=O)Nc1cc(C)ccc1C (centres undefined)
    2% | 1%

Fetched by compound from the list above:
Order of results: VACV mCherry inh | VACV Venus inh
> CC(C)c1nnc(NC(=O)CC(C)c2ccccc2)s1 (centres undefined)
    i | -10%
> CC(=O)c1cccc(NC(=S)NC2CCCCC2)c1
    -13% | -3%
> O=C(c1cc(C2CC2)nn1-c1ccccc1)N1CCN(S(=O)(=O)c2c(F)cccc2F)CC1
    -15% | -11%
> Clc1ccc(OCCSc2ncccn2)c(Br)c1
    -13% | -13%
